Source: PubChem BioAssay
INS promoter inh: TRM-6 insulin promoter activity inhibition. AID 1273. 130,000 tested, 0.9% active. TRM-6 cells (human fetal islet line), insulin promoter-eGFP reporter, imaging; reporter expression induced with tamoxifen. inhibition, % at 2 µM;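 active means inhibition above the mean plus 3 SD, with well images judged a real hit on visual review, cut at about 60% in these data, passing the limit was not always enough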
GALR2 agonist: agonists of human galanin receptor 2 (GALR2). O43603. GALR2-expressing cells, agonist activation read-out. activation, %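 (tested at 5 µM)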. 140,000 tested, 0.48% active. AID 803;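 active means above mean plus 3 SD of all compounds, about 5% in these data, not always enough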;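 further: 0% = vehicle buffer wells and 100% = reference agonist at full effect; tested in CHO reporter cells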
Target sequence (O43603 whole entry, looked up): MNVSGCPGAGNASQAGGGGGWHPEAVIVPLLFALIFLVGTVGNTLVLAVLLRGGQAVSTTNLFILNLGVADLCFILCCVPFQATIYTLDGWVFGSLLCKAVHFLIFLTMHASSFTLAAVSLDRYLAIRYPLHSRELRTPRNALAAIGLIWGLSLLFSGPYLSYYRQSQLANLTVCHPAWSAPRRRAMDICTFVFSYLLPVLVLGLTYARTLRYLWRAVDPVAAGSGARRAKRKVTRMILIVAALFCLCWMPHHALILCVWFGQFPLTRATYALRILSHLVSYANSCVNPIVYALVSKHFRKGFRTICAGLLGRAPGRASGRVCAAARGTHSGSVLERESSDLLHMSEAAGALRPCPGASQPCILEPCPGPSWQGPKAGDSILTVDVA
RGS16-Gao: RGS16-Galphao interaction regulator (human) | bead-based flow cytometry RGS16-Galphao binding, fluorescence; actives lie on both sides | binding response (% of control), % at 10 µM | 220,000 tested, 0.38% active;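 active means below 25% or above 175%, edge rows of some plates excepted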;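 further: Galphao activated by GDP with aluminum fluoride before binding; 100% = wells without compound and 0% = beads without RGS; some results beyond the cut were filed as inactive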
Target sequence (O15492 whole entry, looked up): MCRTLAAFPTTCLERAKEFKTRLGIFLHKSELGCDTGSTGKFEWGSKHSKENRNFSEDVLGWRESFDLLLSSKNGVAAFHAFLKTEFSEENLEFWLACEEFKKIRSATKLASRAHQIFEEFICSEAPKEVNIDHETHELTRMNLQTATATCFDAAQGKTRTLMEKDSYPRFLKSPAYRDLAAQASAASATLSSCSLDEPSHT
Target sequence (P09471 whole entry, looked up): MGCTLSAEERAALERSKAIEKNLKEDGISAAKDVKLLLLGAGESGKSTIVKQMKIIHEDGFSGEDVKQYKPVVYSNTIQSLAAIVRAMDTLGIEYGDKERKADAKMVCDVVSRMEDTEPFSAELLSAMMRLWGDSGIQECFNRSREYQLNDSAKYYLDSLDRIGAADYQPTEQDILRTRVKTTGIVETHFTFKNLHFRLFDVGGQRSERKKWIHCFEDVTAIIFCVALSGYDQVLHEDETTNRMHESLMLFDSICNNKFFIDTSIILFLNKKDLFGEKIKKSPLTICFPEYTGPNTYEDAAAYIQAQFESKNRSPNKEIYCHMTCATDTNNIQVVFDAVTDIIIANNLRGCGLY
HSV replic up: increases HSV replication in cells | maximum fold increase | HSV replication augmentation in cells, fold increase | 220,000 tested, 0.005% active;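 active means peak rise of 1.5-fold or more in the series; tested in PC3 cells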;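 further: first round at 10 µM; read as green reporter fluorescence; hits show the peak of a series up to 25 µM; 1 = signal of infected wells without compound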
PKD1 inh: PKD1 (human) kinase inhibition | AID 797 | Q15139 | inhibition, %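 (about 10 µM by stock and volumes)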 | 200,000 tested, 0.056% active | PKD1 kinase fluorescence polarization assay;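 active means inhibition of 50% or more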;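 further: controls were vehicle for no effect and a reference inhibitor for full effect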
INS promoter inh cell count: second read-out of INS promoter inh, no call of its own (marks repeat the call); normalized cell count, %; measured here: cell count, toxicity; reference of the scale not given here;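 cells exposed to compound for 48 h; stained nuclei by imaging scaled within each plate; lower means fewer cells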
HSV replic up primary fold: also measured in HSV replic up; calls as there; fold increase; compound at 10 µM; measured here: primary screen fold increase 10 uM; tested in PC3 cells;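 GFP signal in the first replicate; 1 = infected wells without compound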
The depositor's hits bear a star; i = inactive; . = not tested or not shown.

A first look (5 entries):
SMILES	INS promoter inh	INS promoter inh cell count	GALR2 agonist	RGS16-Gao	HSV replic up	HSV replic up primary fold	PKD1 inh
Oc1ccc(N=Nc2n[nH]c(-c3ccc(Cl)cc3)n2)cc1	.	.	-3.5	96	i	0.8	-1
Cc1ccc(-n2nc3ccc(NC(=O)C(C)C)cc3n2)cc1	.	.	.	118	i	0.88	2
CCOC(=O)c1cn2nc(Oc3ccc(C)cc3)ccc2n1	.	.	.	97	i	0.93	.
O=C(O)c1ccc(/C=N/Nc2nnnn2-c2ccccc2)cc1	5	51	-1.8	37	i	1.1	-2
COc1ccc(CC(=O)O/N=C(\N)c2ccc(OC)cc2)cc1	.	.	.	102	i	1	.

This part in full (from the top)
SMILES	INS promoter inh	INS promoter inh cell count	GALR2 agonist	RGS16-Gao	HSV replic up	HSV replic up primary fold	PKD1 inh
Oc1ccc(N=Nc2n[nH]c(-c3ccc(Cl)cc3)n2)cc1	.	.	-3.5	96	i	0.8	-1
Cc1ccc(-n2nc3ccc(NC(=O)C(C)C)cc3n2)cc1	.	.	.	118	i	0.88	2
CCOC(=O)c1cn2nc(Oc3ccc(C)cc3)ccc2n1	.	.	.	97	i	0.93	.
O=C(O)c1ccc(/C=N/Nc2nnnn2-c2ccccc2)cc1	5	51	-1.8	37	i	1.1	-2
COc1ccc(CC(=O)O/N=C(\N)c2ccc(OC)cc2)cc1	.	.	.	102	i	1	.
C=CCn1c(SCC(=O)NC(=O)c2cccc([N+](=O)[O-])c2)nnc1-c1ccccc1F	-15	160	-1.1	106	i	1	4
CN(Cc1cccs1)CC(O)COCc1ccco1 (stereo not drawn)	5	56	-0.9	100	i	0.93	-11
CC(C)(CO)NS(=O)(=O)c1ccc2c(c1)C(=O)c1cc(S(=O)(=O)NC(C)(C)CO)ccc1-2	.	.	.	89	i	0.94	.
O=C(CCN1CCCCCC1)Nc1ccc2c(c1)OCCO2	-27	89	.	107	i	0.98	6
COCCN1C(=O)N[C@@H](c2ccc(Br)cc2)C(C(=O)OC)=C1C	-5	111	-0.8	100	.	.	-6
CCc1nn2cc(C(=O)c3cc(Cl)ccc3O)cnc2c1-c1ccc(F)cc1	12	85	0.2	75	i	1	-9
CN(C)CCCNC(=O)c1ccc(Cl)c(S(=O)(=O)N(C)c2ccccc2)c1	38	78	-1.1	112	i	1.1	2
COc1ccccc1N(CC(=O)N/N=C/c1c(O)ccc2ccccc12)S(C)(=O)=O	12	61	0.7	33	i	0.97	-3
Cc1cccc(NC(=O)C2CC(=O)n3ncnc3N2)c1 (stereo not drawn)	.	.	.	104	i	0.95	.
CCCNS(=O)(=O)c1ccc(OCC(=O)NCc2ccc3c(c2)OCO3)cc1	30	75	-2.5	106	i	0.94	-2
Fc1cccc(Cl)c1CSc1ncn[nH]1	.	.	-1.0	100	i	1	1
CCOc1ccc(C(=O)NCc2ccccn2)cc1	.	.	-1.3	101	i	1.1	-5
O=C(Nc1ccc(S(=O)(=O)N2CCCCC2)cc1)C1CCCN(C(=O)c2ccc(Cl)cc2)C1 (stereo not drawn)	-48	77	-0.6	110	i	0.85	-3
Cn1c(CN2CCCC2)nc2cc(NC(=O)C3CCCCC3)ccc21	-23	75	-3.5	153	i	1.1	10
O=C(CN1CCCCCCC1)N/N=C/c1ccc(F)cc1F	21	134	0.3	113	i	1.1	-2
C=CCn1c(C)cc(C(=O)Cn2c(C(C)O)nc3ccccc32)c1C (stereo not drawn)	.	.	.	101	i	1	-1
NC(N)=N/N=C/c1ccc2cccc(OCc3ccccc3)c2n1	.	.	.	99	i	0.6	.
c1ccc(-n2c3ccccc3c3ccccc32)cc1	.	.	.	94	i	0.92	.
CCCCNc1nc2ccccc2[nH]1	100*	3.8*	-0.3	97	i	0.89	0

5 compounds from above with just RGS16-Gao.
molecule	RGS16-Gao
C=CCn1c(C)cc(C(=O)Cn2c(C(C)O)nc3ccccc32)c1C (stereo not drawn)	101
Oc1ccc(N=Nc2n[nH]c(-c3ccc(Cl)cc3)n2)cc1	96
c1ccc(-n2c3ccccc3c3ccccc32)cc1	94
COc1ccccc1N(CC(=O)N/N=C/c1c(O)ccc2ccccc12)S(C)(=O)=O	33
COCCN1C(=O)N[C@@H](c2ccc(Br)cc2)C(C(=O)OC)=C1C	100

The list continues.
SMILES	INS promoter inh	INS promoter inh cell count	GALR2 agonist	RGS16-Gao	HSV replic up	HSV replic up primary fold	PKD1 inh
CCC(C)(C(=O)Nc1c(C)cccc1C)N(C)C(=O)c1ccc2ccccc2n1 (stereo not drawn)	.	.	.	103	i	1	.
COc1ccc(-n2c(=O)[nH]cc(C(=O)N3CCCc4ccccc43)c2=O)cc1	14	88	-0.8	100	i	0.84	-4
Cc1sc2nc(C)n(/N=C/N(C)C)c(=O)c2c1C	.	.	.	99	i	1.2	.
Cc1ccccc1C(=O)NNC(=O)c1ccoc1C	-17	77	-3.3	94	i	0.85	0
COc1ccccc1/C=C(/CC(=O)NCc1ccccc1)c1nc2ccccc2s1	.	.	-1.6	100	i	1.1	1
O=C(Oc1cccc([N+](=O)[O-])c1)N1CCCCC1	52	103	.	105	i	0.88	-3
Cc1sc(NC(=O)CSc2nnc3scc(-c4ccccc4)n23)c(C#N)c1C	.	.	-0.6	112	i	0.87	-6
Cc1cc(-n2c(C)cc(C(=O)CN3C(=O)NC4(CCCCCC4)C3=O)c2C)no1	.	.	0.1	103	i	0.93	-3
O=C(Nc1cccc2ccccc12)/C(=C/c1ccc([N+](=O)[O-])cc1)NC(=O)c1ccccc1	20	151	-3.5	101	.	.	-2
CCOC(=O)C1(CCOC)CCN(Cc2nc(C(C)C)cs2)CC1	.	.	.	98	i	1.1	-2
O=S(=O)(c1ccc(C2CCCCC2)cc1)N1CCCC1	42	92	-3.3	106	i	0.99	11
CCN(CC)S(=O)(=O)c1ccc2nc(NC(=O)c3ccco3)sc2c1	.	.	.	90	i	0.99	-1
CCCNCc1cc(OCC)c(OCC(=O)Nc2ccccc2)cc1Br	.	.	.	105	i	0.83	3
CCCCNC(=O)Nc1ncn[nH]1	.	.	.	104	i	0.94	.
Cc1ccc(SC(C)C(=O)NCC(C)C)cc1 (stereo not drawn)	i	67	-2.4	103	i	0.81	-11
COc1ccc(OCC(=O)Nc2ccc(S(=O)(=O)N3CCOCC3)cc2)cc1	-9	143	-2.7	89	i	1	3
Cc1ccccc1C(=O)NNC(=S)NC(=O)COc1ccccc1	30	103	-2.4	104	i	1.1	-8
COc1ccc(CCCc2nnc(SCC(=O)N/N=C\c3ccc(O)c(OC)c3)o2)cc1C	.	.	-1.3	90	i	0.96	2
O=C(NCCO)Nc1ccc2nsnc2c1	-33	59	.	104	i	0.92	-7
CCOC(=O)c1sc2ccccc2c1OC(=O)c1ccccc1OC	.	.	-0.3	53	i	1.1	-1
Cc1cccc(Cn2cnc3c(nnn3Cc3ccc(Cl)cc3)c2=O)c1	-29	119	-1.5	112	i	0.85	-8
CSCCC1NC(=O)N(CC(=O)Nc2c(C(C)C)cccc2C(C)C)C1=O (stereo not drawn)	.	.	.	98	i	0.86	-1
CCOC(=O)CCP(=O)(O)C(O)c1ccc(OC)cc1 (stereo not drawn)	.	.	-0.4	105	i	0.93	-7
COc1ccc(C(=O)OCC(=O)NCC2CCCO2)cc1S(=O)(=O)N1CCCc2ccccc21 (stereo not drawn)	26	94	.	101	i	1.1	-6
N#CCCCN1C(=O)C(=C(C#N)C#N)c2ccccc21	.	.	.	107	i	1	-5
Nc1ccc(N=Nc2ccccc2Cl)c(N)n1	.	.	.	101	i	0.76	.
Cc1noc(C)c1COC(=O)CCc1ccc(S(=O)(=O)N2CCCCC2)cc1	.	.	-1.9	103	i	1	5
CC(C)(C)NC(=O)C(=O)NN=C1CCCCCCCCCCC1	8	83	.	103	i	0.86	-3
COC(=O)N(C)c1ccccc1C(=O)N1CCOCC1	-32	87	-1.1	97	i	0.96	-9
Cc1cc(=O)[nH]c(NN=C(CC(C)C)CC(C)C)n1	.	.	-0.8	102	i	1	4
COc1ccc(/C=C(\NC(=O)c2ccccc2)C(=O)N/N=C/c2sccc2C)cc1	.	.	0.5	102	i	0.96	-4
CNC(=O)COC(=O)c1ccccc1NC(=O)c1ccco1	.	.	.	90	i	1.1	.
Cc1cc(N2CCC(C(=O)NCC3CC3)CC2)nc(-c2ccccc2)n1	.	.	-0.7	92	i	1	-16
CC(C)[C@H](NC(=O)C1(c2ccccc2)CCN(C(=O)OC(C)(C)C)CC1)C(=O)O	.	.	-0.5	104	i	0.99	-15
C=CCN(CC=C)Cc1nc(N)nc(Nc2ccccc2C)n1	8	124	.	106	i	0.87	-6
O=C(CCC1CCCN(C(=O)c2ccsc2)C1)NCc1ccc(F)c(F)c1 (stereo not drawn)	.	.	.	96	i	1	-1
O=C(NCCCN1CCOCC1)C(=O)N/N=C/c1ccccc1Cl	.	.	.	85	i	0.93	.
Fc1ccc(C2CC(c3ccc(F)cc3)n3ncnc3N2)cc1 (stereo not drawn)	.	.	-0.7	91	i	1	-12
CCCN1C(=O)/C(=c2\s/c(=C3\C=Cc4ccccc4N3CC)c(=O)n2-c2ccccc2)SC1=S	.	.	-0.3	97	i	1.1	-9
O=C(CN1CCSCC1)N/N=C/c1ccc(Cl)cc1	.	.	.	100	i	1.1	-13
Clc1ccc(N2CCOCC2)nn1	50	94	.	109	i	0.92	1
Cc1cc(C)c2cc(CN(CCN(C)C)C(=O)Nc3ccccc3Cl)c(=O)[nH]c2c1	-50	98	.	106	i	0.92	10
Cc1cc(-n2c(C)c3c(C)nnc(C)c3c2C)ccc1N	.	.	.	103	i	1.2	.
CC(C)(C)N(Cc1cc2ccccc2[nH]c1=O)C(=O)c1cccc([N+](=O)[O-])c1	.	.	.	98	i	0.99	.
COCCn1c(-c2ccc(C)cc2)nc2oc3cc(OC)ccc3c(=O)c2c1=O	.	.	.	107	i	1.1	.
O=[N+]([O-])c1cccc(-c2nnc(CNC3CC3)o2)c1	-5	101	.	102	i	1	-3
C/C(=N\O)c1sc(-c2ccccc2)nc1C	-44	95	.	94	i	0.9	-9
COc1ccc(N2C(=O)CC(Sc3nc4ccccc4s3)C2=O)cc1 (stereo not drawn)	64	80	.	120	i	1.1	-5

The last 2 compounds of the part before open the next one:
SMILES	INS promoter inh	INS promoter inh cell count	GALR2 agonist	RGS16-Gao	HSV replic up	HSV replic up primary fold	PKD1 inh
C/C(=N\O)c1sc(-c2ccccc2)nc1C	-44	95	.	94	i	0.9	-9
COc1ccc(N2C(=O)CC(Sc3nc4ccccc4s3)C2=O)cc1 (stereo not drawn)	64	80	.	120	i	1.1	-5
COC(=O)c1ccccc1NC(=O)CN(c1cc(OC)ccc1OC)S(C)(=O)=O	-43	122	-2.0	101	i	0.8	-4
Cc1cccc(CSCc2nnc(N)s2)c1	-9	183	-0.7	105	i	1.1	2
CCN(CC)S(=O)(=O)c1cc(C)c(C)cc1Br	-73	46	-3.4	112	i	0.99	-6
O=C(CSc1ncn(-c2ccccc2)n1)Nc1nc2c(s1)CCCC2	-18	79	-2.3	96	i	1.2	7
Cc1cc(C(=O)CCl)c(C)n1CC1COc2ccccc2O1 (stereo not drawn)	29	103	.	95	i	1	-3
CN(C)c1ccc(/C=C/c2ccncc2)cc1	-87	174	1.3	90	i	1	-4
COc1ccc(Cl)cc1N(CC(=O)N1CCN(Cc2ccccc2)CC1)S(C)(=O)=O	.	.	0.1	99	i	0.93	-2
CC(C)(CNC(=O)C1CCCC1)CNC(=O)C1CCCC1	14	137	0.3	96	i	1.1	-5
Cc1cc([N+](=O)[O-])nn1CC(=O)Nc1cccc2nonc12	-64	163	.	99	i	1	-3
COc1ccc(S(=O)(=O)N2CCC(C(=O)NCc3cccc(OC)c3)CC2)cc1	-14	68	0.7	118	i	0.92	-1
CCOn1c(=O)c(-c2ccc(Cl)cc2)[n+]([O-])c2ccccc21	-17	142	0.8	94	i	1	-10
CC(C)(C)NC(=O)/C(=C\C=C\c1ccccc1)NC(=O)c1ccc([N+](=O)[O-])cc1	14	157	1.0	104	i	0.97	0
Cn1ccc(C(=O)Nc2ccc(Br)cc2Br)n1	14	53	-2.1	95	i	1.1	-6
COC(=O)CCCC1=CC2=C(c3ccccc3)C(=O)C(C)(OC(=O)C3CCCC3)C(=O)C2=CN1CCc1ccccn1 (stereo not drawn)	.	.	.	101	i	0.87	.
CCOC(=O)c1c(NC(=O)C2=C(C)NC(=S)NC2c2ccccc2C(F)(F)F)sc(C)c1C (stereo not drawn)	-29	97	-0.6	95	i	0.84	-9
Cc1onc(-c2ccccc2)c1C(=O)N1CCN(C(=O)c2ccco2)CC1	.	.	-1.1	56	i	0.87	-17
COCc1nnc(NC(=O)c2ccc(S(=O)(=O)N(CC(C)C)CC(C)C)cc2)o1	.	.	.	105	i	0.99	-5
COc1ccnc(-n2cccc2C=O)c1C#N	.	.	.	108	i	0.97	3
COC(=O)/C(C(C)=O)=C(\C=C\N(C)C)N(C)C	-35	157	-2.1	97	i	0.89	-1
